# Bioassay records as filed in PubChem BioAssay.
# TRPML1 agonist: human mucolipin-1 channel agonism; Q9GZU1; TRPML1-expressing cells, Ca2+ dye fluorescence, FDSS; host cell line not named in the record; reference of the full effect not given here; activation, % (no concentration beside the values); hit rate 0.12% among 410,000; in the data active = activation above about 50%; inconclusive = about 30% to 50%; inactive = below about 30%; further: 0% is about no effect; the text of the record puts the active cut at 80%
#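 Kinetic FDSS Ca2+ read in Tet-induced TRPML1-DL cells (ABD Ca8 dye plus quencher, 45-90 min RT loading): baseline, then compound, then 110 s agonist window; EC80 agonist 54-4 at 4uM final added afterwards for a 110 s antagonist window.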
# TRPV1 potentiator: human TRPV1 potentiation; TRPV1-expressing cells, Fluo-8 calcium influx, capsaicin EC20 potentiation; host cell line not named in the record; control for the full effect not named in the record; Q8NER1; AID 540277; hit rate 0.02% among 320,000; potentiation, % at 8.33 µM; active means potentiation above 80%; inconclusive means 30% to 80%; inactive means below 30%; further: 0% is about no effect
# Target sequence (Q8NER1 whole entry, looked up): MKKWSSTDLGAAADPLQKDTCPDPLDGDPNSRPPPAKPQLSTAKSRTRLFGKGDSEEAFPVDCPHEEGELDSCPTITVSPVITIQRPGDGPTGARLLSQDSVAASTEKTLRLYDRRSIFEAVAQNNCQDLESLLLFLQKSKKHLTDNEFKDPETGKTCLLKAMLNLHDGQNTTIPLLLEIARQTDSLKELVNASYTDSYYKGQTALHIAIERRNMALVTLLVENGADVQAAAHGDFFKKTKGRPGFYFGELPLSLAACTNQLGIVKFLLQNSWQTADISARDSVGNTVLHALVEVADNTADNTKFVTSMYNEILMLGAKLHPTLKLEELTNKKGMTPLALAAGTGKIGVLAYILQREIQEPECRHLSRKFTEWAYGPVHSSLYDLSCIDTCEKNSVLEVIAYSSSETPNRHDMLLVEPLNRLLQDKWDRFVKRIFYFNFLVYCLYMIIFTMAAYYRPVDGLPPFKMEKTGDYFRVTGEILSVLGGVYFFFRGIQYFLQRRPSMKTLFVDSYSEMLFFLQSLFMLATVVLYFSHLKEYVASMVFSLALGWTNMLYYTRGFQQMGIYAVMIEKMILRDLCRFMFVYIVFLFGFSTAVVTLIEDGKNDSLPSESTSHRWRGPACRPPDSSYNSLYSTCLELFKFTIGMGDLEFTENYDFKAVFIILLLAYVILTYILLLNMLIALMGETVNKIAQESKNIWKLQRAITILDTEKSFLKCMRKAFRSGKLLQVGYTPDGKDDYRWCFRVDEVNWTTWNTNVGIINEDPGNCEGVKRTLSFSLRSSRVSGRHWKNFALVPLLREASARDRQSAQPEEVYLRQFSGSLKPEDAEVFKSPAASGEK
#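 Fluo-8 calcium influx in TRPV1-expressing cells, kinetic read (ex 480/em 520 nm). Compound added and read 3 min for agonist activity, followed by capsaicin at EC20 final and 2 min further read for enhancement.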
# CtBP-E1A blk: CtBP/E1A binding inhibition | activity change, % (no concentration beside the values) | hit rate 0.49% among 340,000 | AlphaScreen GST-E1A/His-CtBP binding, 1536-well; active compounds read low; control for the full effect not named in the record; in the data active means activity change below about -65%; inconclusive means about -30% to -65%; inactive means above about -30%; further: on the % scale 0 is the no-effect control and ±100 the full control effect
#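 Protein mix (5X: 125 nM each GST-E1A, His-CtBP) was incubated with pinned compound 2 h at 37 deg C in dark, in 50 mM Tris pH 8.0 buffer with 300 mM NaCl. Glutathione donor and nickel acceptor beads followed; AlphaScreen signal read after 1 h.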
# Six1-Eya2 blk: Six1/Eya2 interaction inhibition; AID 651725; activity change, % (test concentration not listed); Q15475+O00167; hit rate 0.56% among 360,000; AlphaScreen GST-Six1/His-Eya2 binding, biochemical; active compounds read low; control for the full effect not named in the record; in the data active = activity change below about -65%; inconclusive = about -30% to -65%; inactive = above about -30%; further: on the % scale 0 is the no-effect control and ±100 the full control effect
#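 Homogeneous AlphaScreen proximity assay pairing GST-Six1 with His-tagged Eya2 (added as 5X mix: 250 nM and 500 nM) in 50 mM Tris pH 8.0, 300 mM NaCl, 1 mM TCEP. Glutathione donor and nickel acceptor beads; 1 h, 37 °C, dark.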
# D2 potentiator: human D2 receptor positive allosteric modulation; P14416; hit rate 0.23% among 360,000; AID 624464; DiscoveRx D2 beta-arrestin cells, luminescence, 90 min; 100% = 57 uM dopamine signal; potentiation, % (concentration not given with the values); active = potentiation of 50% or more; inconclusive = 30% to 50%; inactive = 30% or less;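 further: compound concentration not given in the record; tested on top of an EC20 dose of dopamine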
#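 PathHunter D2 cells, attached overnight at 37 deg C, received compound in DMSO plus dopamine at EC20 (50 nM final) for 90 min at 37 deg C. Beta-arrestin recruitment was read as luminescence after 1 h with detection reagent at ambient temperature.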
# TRPML1 blocker: inhibitors of human TRPML1 channel. AID 624415. activity change, negative = inhibition, % (no concentration beside the values). TRPML1-inducible cells, Ca2+ dye fluorescence, FDSS; active compounds read low; inhibition of EC80 agonist-evoked calcium signal. hit rate 0.02% among 390,000; in the data active means activity change below about -50%; inconclusive means about -30% to -50%; inactive means above about -30%;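 further: stimulus is agonist 54-4 at its EC80 concentration; on the % scale 0 is the no-effect control and ±100 the full control effect; compound concentration not given in the record; the text of the record puts the active cut at -80%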
#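 Tet-induced TRPML1-DL cells loaded with Ca8 no-wash calcium dye were read kinetically on FDSS. Compound addition was followed by EC80 agonist 54-4 (4 uM final); inhibition was read over 110 s.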
# * hit, by the source's call; ? = inconclusive; · = not tested or not shown; & = joins results of further samples.
SMILES,TRPML1 agonist,TRPV1 potentiator,CtBP-E1A blk,Six1-Eya2 blk,D2 potentiator,TRPML1 blocker
O=C(CCS(=O)(=O)c1ccccc1)Nc1nnc(-c2ccco2)o1,0.8,-9,-14,-9,-5,36
COc1cccc(-c2ccc(NC(=O)C3CCCN(Cc4cnn(C)c4)C3)cc2)c1 (stereo not drawn),0.7,-6,-5,-7,-17,9
Cc1nn(-c2ccccn2)c(C)c1Oc1ccccc1O,0.1,?,1,0,4,5
CN(C)S(=O)(=O)c1ccc(C(=O)NCC[N+]2(C)CCCCCC2)o1,-0.6,18,·,-2,-19,-5
CCOC(=O)N1CCC(NC(=O)c2ccc3c(c2)N(C)C(=O)/C(=C/c2cccc(OC)c2)S3)CC1,0.8,-5,1,1,-4,2
COc1ccc(CCNC(=O)CCc2ccc(S(=O)(=O)NCC(C)C)cc2)cc1OC,-0.3,5,-1,-3,-3,-7
O=C(O)c1[nH]c2ccccc2c1NS(=O)(=O)Cc1ccccc1,0.2,?,-4,1,5,0
O=C(Nc1ccc(N2CCOCC2)cc1)c1cc2c(s1)CCCC2,1.8,-21,-17,-24,-6,-9
COc1ccc(C(=O)NCc2n[nH]c(=S)n2-c2ccccc2)cc1OC,0.8,0,5,0,-7,15
COc1ccc(C(=O)NCC(=O)OCc2ccc(Cl)cc2Cl)cc1OC,1.2,-7,-2,7,-10,-11
Cc1ccn2cc(CNS(=O)(=O)c3cccs3)nc2c1,-0.5,2,5,13,-9,6
Cc1ccc(C(=O)OCC(=O)N2CCC(C)CC2)cc1S(=O)(=O)N1CCOCC1,-0.6,·,3,0,-5,-5
CC(=O)c1cccc(N(CC(=O)Nc2cc(C)cc(C)c2)S(C)(=O)=O)c1,1.9,4,·,-5,-6,24
O=C(O)/C=C/C(=O)NCc1ccccc1,0.1,5,-4,2,19,-11
Cc1ccc(NS(=O)(=O)c2ccc(Br)s2)nc1,1.2,-5,2,-2,-5,5
Fc1ccc(CSc2nc3ncc(Br)cc3[nH]2)cc1,-0.5,-7,2,-6,-8,5
CC(C)CC(=O)NC(=S)NNC(=O)c1ccc([N+](=O)[O-])cc1,1.2,-11,-15,-11,-27,-11
CC(=O)Nc1ccc(-c2cc(NC(C)=O)n(-c3ccccc3)n2)cc1,-0.6,3,0,4,0,-21
CC1ON=C(c2ccc(F)cc2)NC1=O (stereo not drawn),-0.2,·,2,2,-8,·
CCN(Cc1ccccc1)C(=O)CS(=O)(=O)c1ccccc1,-1.4,0,2,-4,-10,-3
CC1(C)CC(=O)N(CC(=O)NC2CCCC2)c2ccccc2S1(=O)=O,0.2,3,1,22,-2,-4
O=C(CSc1nnnn1C1CCCCC1)NCCc1ccccc1,-0.6,-23,6,2,3,-5
CCCc1c(C(=O)N/N=C/c2sccc2C)nnn1-c1nonc1N,0.7,-11,2,0,-1,-4
CC(=O)Nc1ccc(S(=O)(=O)Nc2ccc(-n3cnnn3)cc2)cc1,-0.9,-7,·,0,5,7
Cc1nnc(SCc2nnc(-c3ccccc3Br)o2)n1-c1ccccc1,-0.3,15,3,4,-3,2
Cc1c(C(=O)NC2CC2)oc2ccccc12,0.1,-7,·,6,0,-5
C[C@H]1COC(=O)[C@H](NC(=O)OCC2c3ccccc3-c3ccccc32)C/C=C\C[C@H](CC(=O)N(CCO)Cc2ccccc2)C(=O)N1,-0.3,·,-6,0,·,7
Cc1ccsc1/C=N/NC(=O)C1CC(=O)N(c2ccccc2)C1 (stereo not drawn),0.5,2,-1,-7,-23,-4
CCCCN(C)Cc1c(C)[nH]c2ccc(C)cc2c1=O,-0.1,8,8,-1,-36,11
CCC(=O)c1cc(F)ccc1OCC(=O)N1CCN(c2ccc(F)cc2)CC1,1.9,-1,7,-4,-5,-6
CCC(CO)Oc1cc(NCc2ccc(C(=O)O)cc2)c2ncn(C(C)C)c2c1 (stereo not drawn),0.0,·,0,-5,-6,-7
C=CC[n+]1c(/C=C2\C=Cc3cc(C)ccc3N2CC)ccc2ccccc21,2.2,2,·,?,-28,21
COc1ccc(Cl)cc1NC(=S)NC1CCCC1,·,8,·,-8,-75,·
CN1CCN(CC#Cc2ccccc2)CC1CCO (stereo not drawn),-0.1,-3,7,5,-4,-6
CC1CCC2=NN(C(=O)c3ccco3)C(O)(C(F)(F)F)C2C1 (stereo not drawn),4.1,6,3,-8,-5,11
COc1ccc(C(=O)C[n+]2ccc(-c3nnc4n3CCC4)cc2)cc1,2.1,3,-11,6,-4,1
CC(C)CN1CCN(CC#Cc2ccccc2)CC1CCO (stereo not drawn),0.0,-8,-1,-2,-4,2
N#CC1=C(N)Oc2c(ccc3ccccc23)C1c1cccs1 (stereo not drawn),-0.4,1,-20,-11,29,-19
COc1ccc(C(=O)c2c[nH]c(C(=O)NCc3ccco3)c2)cc1,-0.5,7,-1,-4,-7,8
COc1ccc(Nc2nc(S(=O)(=O)c3ccc(C)cc3)c(Cl)s2)cc1,1.8,6,-14,-14,-6,33
O=C(NCCN1CCOCC1)c1cc(-c2ccc(Cl)cc2)on1,0.7,-6,-1,2,-16,1
Nc1nc(-c2ccco2)nn1S(=O)(=O)c1ccc(Cl)cc1,-0.7,15,23,-2,5,18
CC1Nc2ncnc(N3CCc4ccccc4C3)c2N(Cc2ccc(Br)cc2)C1=O (stereo not drawn),0.3&2.4,24,-12&-4,-7&-11,-14&-12,19&45
COc1ccccc1NS(=O)(=O)c1cc(C(=O)N2CCN(C/C=C/c3ccccc3)CC2)ccc1C,1.2,-24,6,-12,-22,-8
O=C(Nc1ccc(OC(F)(F)F)cc1)c1[nH]ncc1[N+](=O)[O-],-0.2,-21,-23,0,-2,-13
CCC1CCCCN1CCCNC(=O)Cn1nc(-c2ccc(C)cc2)ccc1=O (stereo not drawn),0.0,-2,7,4,-9,4
CC(=O)c1c(OC(=O)c2ccccc2)c2ccccc2n1C,1.0,-7,12,-7,9,3
COC(=O)/C(C#N)=C/c1c(Oc2cccc(C)c2C)nc2ccccn2c1=O,-0.7,-3,5,2,-10,-10
CCC1=NN2C(=N)/C(=C\c3cccn3-c3ccc(Cl)cc3)C(=O)N=C2S1,-0.3,6,-19,-28,-1,29
CCOC(=O)C1=C(CS(=O)(=O)c2ccccc2)NC(=O)NC1c1ccc(O)c(OC)c1 (stereo not drawn),1.4,26,-7,1,1,7

# Sorted by SMILES length (high to low): part of the list above
SMILES,TRPML1 agonist,TRPV1 potentiator,CtBP-E1A blk,Six1-Eya2 blk,D2 potentiator,TRPML1 blocker
COc1ccccc1NS(=O)(=O)c1cc(C(=O)N2CCN(C/C=C/c3ccccc3)CC2)ccc1C,1.2,-24,6,-12,-22,-8
CCOC(=O)C1=C(CS(=O)(=O)c2ccccc2)NC(=O)NC1c1ccc(O)c(OC)c1 (stereo not drawn),1.4,26,-7,1,1,7
CCC1=NN2C(=N)/C(=C\c3cccn3-c3ccc(Cl)cc3)C(=O)N=C2S1,-0.3,6,-19,-28,-1,29
CCC(CO)Oc1cc(NCc2ccc(C(=O)O)cc2)c2ncn(C(C)C)c2c1 (stereo not drawn),0.0,·,0,-5,-6,-7
C=CC[n+]1c(/C=C2\C=Cc3cc(C)ccc3N2CC)ccc2ccccc21,2.2,2,·,?,-28,21
COc1ccc(Nc2nc(S(=O)(=O)c3ccc(C)cc3)c(Cl)s2)cc1,1.8,6,-14,-14,-6,33
COc1ccc(C(=O)C[n+]2ccc(-c3nnc4n3CCC4)cc2)cc1,2.1,3,-11,6,-4,1
COc1ccc(C(=O)c2c[nH]c(C(=O)NCc3ccco3)c2)cc1,-0.5,7,-1,-4,-7,8
CC1CCC2=NN(C(=O)c3ccco3)C(O)(C(F)(F)F)C2C1 (stereo not drawn),4.1,6,3,-8,-5,11
Nc1nc(-c2ccco2)nn1S(=O)(=O)c1ccc(Cl)cc1,-0.7,15,23,-2,5,18
O=C(NCCN1CCOCC1)c1cc(-c2ccc(Cl)cc2)on1,0.7,-6,-1,2,-16,1
N#CC1=C(N)Oc2c(ccc3ccccc23)C1c1cccs1 (stereo not drawn),-0.4,1,-20,-11,29,-19
CC(C)CN1CCN(CC#Cc2ccccc2)CC1CCO (stereo not drawn),0.0,-8,-1,-2,-4,2
COc1ccc(Cl)cc1NC(=S)NC1CCCC1,·,8,·,-8,-75,·
CN1CCN(CC#Cc2ccccc2)CC1CCO (stereo not drawn),-0.1,-3,7,5,-4,-6

# Further compounds follow.
SMILES,TRPML1 agonist,TRPV1 potentiator,CtBP-E1A blk,Six1-Eya2 blk,D2 potentiator,TRPML1 blocker
Brc1ccc(Oc2nsnc2N2CCOCC2)cc1,0.3,10,-29,?,-8,-6
O=C(NCc1cccnc1)c1cccc(S(=O)(=O)Nc2cccc(Cl)c2)c1,0.5,7,-3,5,20,2
CC(C)(C)c1[nH]c2ccccc2c1/C=N/O,-0.1,8,4,8,-1,-8
COc1ccc(NC(=O)Nc2ccc(N3CCCC3=O)cc2)cc1OC,0.0,-1,17,1,-3,7
CCC/C(O)=C1\C(=O)CCCC1=NCCCCCC(=O)O,-0.1,2,-2,10,-15,-11
COC(=O)c1cn(NC(=O)c2cc(OC)c(OC)c(OC)c2)c(=O)c2ccccc12,2.6,22,-9,3,1,-2
CCOC(=O)C1=CCN(S(C)(=O)=O)C1c1ccc(C)cc1 (stereo not drawn),-0.1,·,2,-3,0,-10
